Screening results: PubChem, Fisher Drug Discovery Resource Center
NPYLR7 agonist – activates Aedes aegypti NPYLR7 receptor; hit rate 0.15% among 270,000; HEK293T NPYLR7/Galpha15, GCaMP6s calcium fluorescence; activation, % at 10 µM; in the data active = activation above about 40%;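 also: 0% = vehicle and 100% = reference agonist at the receptor; some compounds past the cut are filed as inactive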
NPYLR7 agonist max-min – recorded beside NPYLR7 agonist, whose call it bears; activation, %; measured here: Max-Min RFU normalised activation; some inactives read as strong as hits;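 span of the calcium signal over five minutes; 0% = vehicle and 100% = native peptide agonist; compound fluorescence can raise it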
Numbers without * were called inactive; & = joins results of further samples. Some of the compounds tested; rates above refer to the full screens.

Start of the data: the first 3 compounds as a preview:
SMILES	NPYLR7 agonist	NPYLR7 agonist max-min
CCCCCCNC(=O)c1cc(-c2ccc(Cl)cc2)n(-c2ccccc2F)c1C	2	8
CN1C(=O)C2(c3ccccc31)c1c(oc3ccccc3c1=O)C(=O)N2CCCO (stereo not drawn)	4	4
COc1cc(OC)c(OC)cc1C=C(C#N)S(=O)(=O)c1ccc(Cl)cc1	1	10

The listing, from the start:
SMILES	NPYLR7 agonist	NPYLR7 agonist max-min
CCCCCCNC(=O)c1cc(-c2ccc(Cl)cc2)n(-c2ccccc2F)c1C	2	8
CN1C(=O)C2(c3ccccc31)c1c(oc3ccccc3c1=O)C(=O)N2CCCO (stereo not drawn)	4	4
COc1cc(OC)c(OC)cc1C=C(C#N)S(=O)(=O)c1ccc(Cl)cc1	1	10
Fc1ccc(CNCC2CC(c3ccc(Cl)cc3)=NO2)c(F)c1 (stereo not drawn)	1	-4
CCN(CC1CCOC1)C(=O)c1n[nH]c(C)c1Br (stereo not drawn)	6	2
CC12CCC(CC1=NNC(=O)NC1CCCCC1)C2(C)C (stereo not drawn)	-5	-7
O=C(/C=[N+](\[O-])C1CCC/C1=N\O)c1ccc(Br)cc1 (stereo not drawn)	-5	-12
O=S(=O)(N=Cc1c(O)ccc2ccccc12)c1ccccc1	-1	-1
CC(c1ccc(F)cc1)N(C)C(=O)CN1CC(O)CC1c1cc(F)ccc1F (stereo not drawn)	-1	-1
Cc1ccc(C(=O)N/C(=C\c2ccccc2)C(=O)OCN2C(=O)c3ccccc3C2=O)cc1	-2	6
CSc1ccc(CN2C(=O)C(Cc3ccccc3)ON=C2C)cc1 (stereo not drawn)	-4	-4
C#CCOCC(O)CN(Cc1ccc(C)s1)CC1CCCO1 (stereo not drawn)	19	19
O=C(NCc1ccc2c(c1)OCO2)c1cc2n(n1)CCN(Cc1c(Cl)cccc1Cl)C2=O	18	8
Cn1c(SCC(=O)NC2CCCCC2)nc2c(-c3ccccc3)c[nH]c2c1=O	-4	-9
CC1(C)C2(C(=O)N3CCC(Cc4ccc5c(c4)OCO5)CC3)CC[C@@]1(C)C(=O)O2	1	5
OCc1ccccc1CN1CCN(Cc2ccccc2Cn2cccn2)CC1	-2	-4
Cc1ccc(C)c(NC(=O)CC(=O)NCCN(C)S(C)(=O)=O)c1	-6	-14
Cc1ccccc1-c1ccc(CN2CCC(CO)(CC3CCCCO3)CC2)cc1 (stereo not drawn)	11	5
CC1SC(c2cccc(C(F)(F)F)c2)N(CCN2CCNCC2)C1=O (stereo not drawn)	0	-9
COCCN(CC(=O)Nc1nc(CC(=O)N2CCCC2)cs1)C(=O)c1ccc(Cl)cc1Cl	2	-11
Cc1cccc(-n2c(-c3ccc(Cl)cc3)cc(C(=O)N3CC4(C)CC3CC(C)(C)C4)c2C)c1 (stereo not drawn)	20	15
Cc1c(C)c(C)c(S(=O)(=O)Nc2ccc(NC(=O)CN3CCOCC3)cc2)c(C)c1C	6	1
CSc1ncccc1C(=O)N1CCN(C2c3ccccc3CCc3ccccc32)CC1	-4	4
CC(C)c1ccccc1OC1CC2CCC(C1)N2C(=O)c1ccc(CSc2ccccn2)cc1 (stereo not drawn)	8	20
O=C(NCCN1CCOCC1)c1coc(CN(Cc2ccc3c(c2)OCO3)Cc2ccc(F)cc2F)n1	-7	6
CCCCCn1cc(C2CCN(S(=O)(=O)c3c(F)cccc3F)CC2)c2ccccc21	6	3
COc1ccc(N2CCN(c3cc(-c4ccccc4)nc(SCc4ccc(C(=O)NCc5ccccn5)cc4)n3)CC2)cc1	7	-8
CC(=O)Nc1ccc(C(=O)CSc2n[nH]c(-c3ccccc3)n2)cc1	-7	-11
CC(C)C(=O)Nn1ccc2c(cnc3nc(-c4ccccc4)nn32)c1=O	4	5
Cn1c(=O)[nH]c(=O)c2c1nc(N1CCc3ccccc3C1)n2CCSc1ncccn1	4	0
COc1ccccc1N1CCN(CC[C@H]2CN(C(=O)c3ccccc3)CC[C@H]2CC(=O)O)CC1	-2	-11
COc1ccc(CNC(=O)c2cccnc2N2CCN(C(=O)CCC3CCCC3)CC2)cc1	2	25
Cc1nnsc1C(=O)NCCn1ncc2c(N3CCCC3)ncnc21	2	1
COc1ccc(NC(=O)NNC(=O)c2ccc(=O)n(Cc3ccc(C)cc3)c2)cc1	1	0
Cc1ccccc1CSc1nnc(CNC(=O)c2cccc(Br)c2)n1-c1cc(Cl)ccc1Cl	29	26
CC(C)CC(NC(=O)c1ccco1)c1nnc2n1CCN(Cc1ccc3c(c1)OCO3)CC2 (stereo not drawn)	15	4
COc1ccc(C(C)=O)cc1CN1C(=O)C2(CCC2)ON=C1c1cccs1	-3	-3
COCCCNC(=O)c1cc(-c2cccs2)nc2cc(C)c(C)cc12	6	6
CCOC(=O)N1CCN(C(=O)C=Cc2ccco2)CC1	-3	-4
CN(C(=O)c1cc2c(=O)n3ccccc3nc2s1)C1CCCCC1	-5	-3
CCc1sc(C(=O)NC2CCN(C(=O)c3ccncc3)CC2)cc1C	0	-3
CCN(CC)CC(=O)OCC1C(C)C=C(C)CC1C (stereo not drawn)	3	0
CCn1c(=O)n(CCC(=O)Nc2ccc3c(c2)OCO3)c2ccccc21	3	2
Cc1cccc(-c2c(-c3ccccc3)ncn2CCCn2ccnc2)c1	4	2
CCO[C@H]1COC[C@@H]1NC(=O)CCc1scnc1C	9	6
CCCCN(C(C)=O)c1c(CC)nc2ccc(C(=O)NCCN3CCOCC3)cn12	13	11
O=C(Cn1ncnn1)N1CCC(N2CCCC(C(=O)N3CCCC3)C2)CC1 (stereo not drawn)	4	2
C=CCC1CC(=O)N(CCc2c[nH]c3ccccc23)C1=O (stereo not drawn)	-13	-18
Fc1ccccc1/C=N\Nc1nc(N2CCCCC2)nc(N2CCOCC2)n1	-18	-19
CN(Cc1cn[nH]c1-c1ccccc1)C(=O)C(=O)c1ccco1	22	14
CCC(CC)C(=O)N1[C@@H](c2ccco2)[C@@H](C(=O)NC)C[C@]12CCCCN(C)C2=O	2	7
Cc1nn(-c2ccccc2)c2nc(Cc3ccccc3)nc(N3CCN(C(=O)c4ccc5c(c4)OCO5)CC3)c12	8	13
CSCCC(=O)N1CCN(c2nc3nccc(-c4ccc(C(C)(C)C)cc4)n3n2)CC1	-2	-3
CN1CCC2(CC1)CN(C(=O)c1ccc3[nH]ccc3c1)CCN2C	2	53
CC(SCC(=O)N(c1ccc(F)cc1)C1C=CS(=O)(=O)C1)c1ccccc1F (stereo not drawn)	3	2
O=C(CCC1CCCN(Cc2ccc(-c3ccccc3Cl)o2)C1)NC1CC1 (stereo not drawn)	5	4
Cc1ccccc1-c1noc(-c2cn(CC3CCCO3)nn2)n1 (stereo not drawn)	10	7
CCCC(C)N1Cc2cccc(NCc3c(C)noc3C)c2C1 (stereo not drawn)	15	7
Cc1ccc(-c2nc(CCNc3nn4c(=O)ccnc4s3)cs2)cc1	0	17
CC1CCC(NC(=O)C(C)N2C3CCC2CC(=O)NC3)CC1 (stereo not drawn)	8	9

6 entries picked at random from those above, as already listed:
SMILES	NPYLR7 agonist	NPYLR7 agonist max-min
Cc1nn(-c2ccccc2)c2nc(Cc3ccccc3)nc(N3CCN(C(=O)c4ccc5c(c4)OCO5)CC3)c12	8	13
Cc1ccccc1-c1noc(-c2cn(CC3CCCO3)nn2)n1 (stereo not drawn)	10	7
CCCCN(C(C)=O)c1c(CC)nc2ccc(C(=O)NCCN3CCOCC3)cn12	13	11
CN(Cc1cn[nH]c1-c1ccccc1)C(=O)C(=O)c1ccco1	22	14
CC1CCC(NC(=O)C(C)N2C3CCC2CC(=O)NC3)CC1 (stereo not drawn)	8	9
CN1CCC2(CC1)CN(C(=O)c1ccc3[nH]ccc3c1)CCN2C	2	53

Continued:
SMILES	NPYLR7 agonist	NPYLR7 agonist max-min
COc1ccc(C(=O)O)cc1S(=O)(=O)N1CCC(C)c2ccccc21 (stereo not drawn)	5	3
CCCCN(Cc1ccco1)Cc1cc2ccc(F)cc2[nH]c1=O	-4	-9
CC(C)c1ccccc1NC(=O)C1CC1C (stereo not drawn)	6	4
CC(=O)Nc1sc(C)c(C)c1C(=O)OC(C)C(=O)NC1CCCC1 (stereo not drawn)	8	10
OCC1(Cc2ccccc2)CCCN(Cc2ccc3nonc3c2)C1 (stereo not drawn)	7	7
O=C(Cc1ccc(Oc2nc(Cc3ccc(F)cc3)ns2)cc1)N1CCN(c2cccc(C(F)(F)F)c2)CC1	14	22
CCc1c(C)c(C(=O)NC(C)CC)n(Cc2cccc(OC)c2)c1C (stereo not drawn)	15	19
O=C(NCC1CCCO1)C1CCN(S(=O)(=O)N2CCCCC2)CC1 (stereo not drawn)	-2	-2
O=C(NC1CCN(Cc2ccccc2)C1=O)c1cc(Cl)ccc1Cl (stereo not drawn)	1	0
Cc1ccc(-n2nnnc2CNC(=O)c2ccc3ccccc3c2)cc1	-5	-5
NC(=O)c1nc(-c2ccccc2)nc2c1[nH]c(=O)n2-c1ccc2c(c1)OCO2	-10	-12
Cc1ccc(-c2ccccc2NC(=O)C2CC2)cc1F	1	4
CCOC(=O)C1=C(C)N(CC)C(=S)NC1c1cccc(NC(=O)c2cc(OC)cc(OC)c2)c1 (stereo not drawn)	-3	4
Cc1cccc(N2CCC(C(=O)NCCc3ccccn3)C2=O)c1 (stereo not drawn)	6	7
CN1C(=O)N(Cc2cccnc2)C(=O)C12CCN(Cc1cccc(Oc3ccc(Cl)cc3)c1)CC2	14	0
COc1ccccc1N1CC(c2nc3ccccc3n2Cc2ccc(F)cc2)CC1=O (stereo not drawn)	2	4
CC1CCCN(C(C(=O)NC2CCCC2)c2cc3c(cc2[N+](=O)[O-])OCO3)C1 (stereo not drawn)	-6	-7
Cc1nc(C(=O)N2CCCCc3ccccc32)nn1-c1ccc(F)cc1	8	3
O=C(c1cn(Cc2cccc(F)c2)nn1)N1CCC(n2cccc2)C1 (stereo not drawn)	16	15
Cc1ccc2[nH]cc(-c3nc(-c4ccc(C(F)(F)F)cc4)no3)c(=O)c2c1	-2	-4

The final five records of the section above come first, to join the parts:
SMILES	NPYLR7 agonist	NPYLR7 agonist max-min
COc1ccccc1N1CC(c2nc3ccccc3n2Cc2ccc(F)cc2)CC1=O (stereo not drawn)	2	4
CC1CCCN(C(C(=O)NC2CCCC2)c2cc3c(cc2[N+](=O)[O-])OCO3)C1 (stereo not drawn)	-6	-7
Cc1nc(C(=O)N2CCCCc3ccccc32)nn1-c1ccc(F)cc1	8	3
O=C(c1cn(Cc2cccc(F)c2)nn1)N1CCC(n2cccc2)C1 (stereo not drawn)	16	15
Cc1ccc2[nH]cc(-c3nc(-c4ccc(C(F)(F)F)cc4)no3)c(=O)c2c1	-2	-4
CCCNC(=O)C1(C)CCN(Cc2cccc(OC(=O)c3ccccc3)c2)C1 (stereo not drawn)	5	9
CC(C)Sc1nc2c(c(=O)n(C)c(=O)n2C)n1Cc1ccccc1	17	6
Cc1cc(S(=O)(=O)N2CCc3ccc(NC(=O)c4ccccn4)cc3C2)c(C)s1	4&6	1&6
Cc1ccccc1Nc1oc2c(c1-c1ccc(Cl)cc1)c(=O)n(C)c(=O)n2C	4	1
COc1ccc(C(=O)N2CCN(C(C(=O)N3CCCCC3C)C3CCCC3)CC2)cc1OC (stereo not drawn)	-3	-1
COc1ccc(N2C(=O)/C(=C/c3ccc(N(C)C)cc3)N(C)C2=S)cc1	23	15
Cc1ccc(C2c3ccccc3CCN2C(=O)Nc2ccc(C#N)cc2)cc1 (stereo not drawn)	1	11
CCn1nc(C)c(CNCc2c(C(=O)N3CCCC3)nc3sccn23)c1C	19	13
CCOC(=O)C1CCN(C(c2ccco2)C2Sc3nc(C)nn3C2=O)CC1 (stereo not drawn)	1	-1
Cc1ccccc1NC(=O)Cn1nc(-c2ccccc2)c2sc(N3CCCC3)nc2c1=O	-3	-8

Rewritten with values under each structure: part of the list above
Each structure is followed by: NPYLR7 agonist	NPYLR7 agonist max-min
O=C(Cc1ccc(Oc2nc(Cc3ccc(F)cc3)ns2)cc1)N1CCN(c2cccc(C(F)(F)F)c2)CC1
    14	22
CCc1c(C)c(C(=O)NC(C)CC)n(Cc2cccc(OC)c2)c1C (stereo not drawn)
    15	19
O=C(NCC1CCCO1)C1CCN(S(=O)(=O)N2CCCCC2)CC1 (stereo not drawn)
    -2	-2
